Bioassay records from PubChem.
A488 fluor – compound fluoresces in the A488 spectral region; compound autofluorescence, A488 spectral region, dye equivalency; hits give high values; max dye equivalency, M; 0.1% of 59,000 active; active = above 10 nM dye equivalent; inconclusive = 1 to 10 nM; inactive = 1 nM or less; about half of its hits are not listed in these tables;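 note: highest value over a series up to 38 µM; compound alone in buffer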
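Readout is A488 dye-equivalent concentration, calibrated by a per-plate six-point Alexa 488 series. Compounds in 100 mM Tris buffer pH 8.0 were incubated 15 min at room temperature. Plates were imaged using 480 nm excitation/540 nm emission filters.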
Resorufin fluor – compounds fluorescent in resorufin spectral region; 0.04% of 59,000 active; Compound fluorescence, resorufin region 547/598 nm, buffer; hits give high values; max dye-equivalent concentration, M; active = above 10 nM dye equivalent; inconclusive = 1 to 10 nM; inactive = 1 nM or less; a few of its hits are not listed in these tables; note: highest value over a series up to 38 µM
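Intrinsic fluorescence profiled in the resorufin window (ex 547 nm, em 598 nm) after 15 min at room temperature in pH 8.0 Tris buffer (100 mM); responses normalized against a six-point resorufin standard series as dye-equivalent concentration.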
A647 autofl – compound autofluorescence in A647 spectral region. AID 592. Compound fluorescence, A647 channel (570/671 nm), Tris buffer. 59,000 tested, under 10 active. max dye-equivalent concentration, M; active means above 1 µM dye equivalent; inconclusive means 0.1 to 1 µM; inactive means 0.1 µM or less;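 note: values scaled relative to a standard on each plate; highest value over a series up to 38 µM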
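Tris 100 mM pH 8.0; cpd + A647 stds pin-transferred; 15 min RT; CCD imager, ex 570/em 671. Output = A647-equivalent conc. per cpd conc.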
TSHR ag – TSH receptor (human) agonism | AID 926 | P16473 | Potency, µM (titrated, usually from 57.1 µM), without a hit: at the top dose activation, hits mostly activators | HEK293-CNG-TSHR cells (CNG channel as cAMP sensor), membrane potential dye, cAMP | 0.48% of 73,000 active; active = well fitted activation curve of enough size with the parental cells flat; inconclusive = any curve in the parental cells; inactive = parental cells flat and receptor cells flat or falling; note: potency is the fitted concentration of half-maximal effect; % of control where 0% means no effect; weak receptor curves with flat parental cells got no call and are not listed
Target sequence (P16473 whole entry, looked up): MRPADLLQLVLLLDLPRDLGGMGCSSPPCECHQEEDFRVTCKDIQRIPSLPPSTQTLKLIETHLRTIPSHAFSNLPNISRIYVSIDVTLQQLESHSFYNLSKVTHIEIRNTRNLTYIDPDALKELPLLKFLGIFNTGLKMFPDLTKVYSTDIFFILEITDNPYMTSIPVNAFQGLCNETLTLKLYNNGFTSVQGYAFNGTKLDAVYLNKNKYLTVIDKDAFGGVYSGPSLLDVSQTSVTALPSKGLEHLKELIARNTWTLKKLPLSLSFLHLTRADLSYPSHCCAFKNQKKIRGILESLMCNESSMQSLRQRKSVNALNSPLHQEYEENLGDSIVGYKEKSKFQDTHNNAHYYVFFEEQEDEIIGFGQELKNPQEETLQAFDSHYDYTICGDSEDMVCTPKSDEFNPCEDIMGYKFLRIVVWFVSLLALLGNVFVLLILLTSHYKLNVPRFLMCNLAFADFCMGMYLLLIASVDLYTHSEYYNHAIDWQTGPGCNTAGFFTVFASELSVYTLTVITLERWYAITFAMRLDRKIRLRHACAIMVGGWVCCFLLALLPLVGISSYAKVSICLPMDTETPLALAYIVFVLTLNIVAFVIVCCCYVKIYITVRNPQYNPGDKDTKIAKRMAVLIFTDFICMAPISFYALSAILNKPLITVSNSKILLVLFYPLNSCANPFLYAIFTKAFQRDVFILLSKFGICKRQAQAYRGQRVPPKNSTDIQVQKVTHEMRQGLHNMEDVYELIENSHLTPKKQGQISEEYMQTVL
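cAMP rise detected as CNG-channel membrane depolarization by fluorescent dye (emission 590 nm), 30 min after compound, following 60 min dye loading containing 100 uM RO 20-1724 at room temperature. Cells: TSHR/CNG HEK 293, with parental CNG HEK 293 as control.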
AID923 – qHTS Assay for Allosteric/Competitive Inhibitors of Caspase-1: Spectroscopic Profiling in AFC Spectral Region; compound fluorescence, AFC spectral region (405/520 nm); almost no hit is shown here; Potency, µM (titrated, usually from 57.5 µM), inactives show at the top dose fluorescence increase, hits mostly activators; 1.1% of 75,000 active; AID 923, 2007; active = well fitted activation curve with a large enough effect; inconclusive = small, poorly fitted or top-dose-only effect;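 note: potency is the fitted concentration of half-maximal effect; 0% is about no effect; scaled to a free AFC standard on each plate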
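Baseline compound fluorescence (AFC region, 405 nm ex/520 nm em) taken from the intercept of kinetic reads with 50 nM caspase-1 and 5 uM Ac-WEHD-AFC; normalized to an on-plate AFC standard curve; compounds titrated up to 57 uM.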
An asterisk follows results filed as active; i = inactive; ? = inconclusive; . = not tested or not shown; [ ] = another dose, or the depositor's remark. A portion of the library; count on the stated rates, not on these rows.

A first look:
SMILES	A488 fluor	Resorufin fluor	A647 autofl	TSHR ag	AID923
O=C(CCC1CCCC1)N1CCN(C(=O)c2ccco2)CC1	.	.	.	0%	-1.1%
O=C(O)c1ccc2c(c1)nnn2C1CCCCC1	i	i	3.7e-08	-4%	-0.2%
CC(=O)N=c1sc2c3ccccc3ccc2n1C	i	i	2e-08	-3%[11.4 µM]	1.0%
COc1ccc(-c2nnco2)cc1OC	i	i	4.8e-08	-1%	0.6%
O=C(NCCOc1ccccc1)c1ccc2c(c1)OCO2	i	i	3.2e-09	10%	0.3%

This part in full (from the top)
SMILES	A488 fluor	Resorufin fluor	A647 autofl	TSHR ag	AID923
O=C(CCC1CCCC1)N1CCN(C(=O)c2ccco2)CC1	.	.	.	0%	-1.1%
O=C(O)c1ccc2c(c1)nnn2C1CCCCC1	i	i	3.7e-08	-4%	-0.2%
CC(=O)N=c1sc2c3ccccc3ccc2n1C	i	i	2e-08	-3%[11.4 µM]	1.0%
COc1ccc(-c2nnco2)cc1OC	i	i	4.8e-08	-1%	0.6%
O=C(NCCOc1ccccc1)c1ccc2c(c1)OCO2	i	i	3.2e-09	10%	0.3%
Cc1c(C)n(C(=O)CSc2nncn2C)c2ccccc12	.	.	.	?	0.0%
CC[C@@H]1OC(=O)[C@@H](C)[C@H](O[C@@H]2C[C@@](C)(OC)[C@@H](O)[C@H](C)O2)[C@H](C)[C@H](O[C@@H]2O[C@@H](C)C[C@@H](N(C)C)[C@H]2O)[C@@](C)(O)C[C@H](C)C(=O)[C@@H](C)[C@H](O)[C@@]1(C)O	i	i	1.9e-08	2%	.
Cn1nnnc1SCc1nc2ccccc2[nH]1	.	.	.	-1%	2.8%
COc1ccccc1N1CCN(C(=O)COc2ccc(C)cc2Br)CC1	.	.	.	15%	2.6%
O=C(Nc1nc2cc3c(cc2s1)OCCO3)c1cccc(S(=O)(=O)N2CCOCC2)c1	i	i	2.1e-08	8%	13%
O=C(CSc1nc(-c2ccccc2)cs1)NCc1ccco1	i	i	3.1e-08	15%	1.1%
C=CCN1C(=O)C2(c3ccccc31)C1CCCC=C1C(C#N)=C(N)C2(C#N)C#N (configuration not stated)	i	i	1.5e-08	27%	2.8%
COc1ccc(C=Nc2c(O)ccc3ccccc23)cc1OC	i	i	1.3e-08	-3%[11.4 µM]	2.9%[11.5 µM]
Cc1ccc(S(=O)(=O)Nc2cc(NC(=O)CN3CCOCC3)ccc2Cl)cc1	i	i	7.3e-09	2%	-0.4%
Cc1cc(NC(=O)NC(=O)c2ccc(F)cc2F)n[nH]1	i	i	5.8e-09	4%	-0.5%
O=S(=O)(NCCNC/C=C\c1ccc(Br)cc1)c1cccc2cnccc12	i	i	6.6e-08	-37%[inhibitor]	-2.3%
COc1ccccc1NC(=O)N1CCc2[nH]c3ccc(F)cc3c2C1	i	i	1.8e-08	.	-3.7%
OCCNc1nc(-c2ccccc2)c2ccccc2n1	i	i	7.6e-09	.	.
Cc1cc(C)c(C#N)c(N2CCN(CCOc3ccc(Cl)cc3)CC2)n1	i	i	4.3e-09	?	-1.0%
O=C(CCn1cnc2ccccc2c1=O)Nc1ccc2c(c1)OCCO2	i	i	1e-09	-12%	0.8%
Cc1ccc(NC(=O)CSc2nc3ccccc3c(=O)n2CCCC(=O)N2CCCC2)cc1	i	i	2.8e-09	?	-0.7%
CCn1c(C)nc2cc(C(=O)OCCC(F)(F)F)ccc21	i	i	1e-09	0%	-1.0%
CCOC(=O)c1ccc(NC(=O)c2cnccn2)cc1	i	i	2.9e-08	-15%	2.1%
COCCCNc1nc2c(c(=O)[nH]c(=O)n2C)n1CC(O)COc1cccc(C)c1 (configuration not stated)	i	i	2e-08	-4%	-1.2%
CCS(=O)(=O)Nc1ccc(C(=O)CC2(O)C(=O)Nc3ccccc32)cc1 (configuration not stated)	i	i	1.3e-08	?	0.2%
Cc1cccc(-n2c(C)nc3c(cnn3-c3ccc(F)cc3)c2=O)c1	i	i	3.7e-09	?	-0.7%
COc1ccc(Cl)cc1NC(=O)c1cccnc1	.	.	.	-1%	1.9%
Nc1nc(CSc2nnnn2-c2ccccc2)nc(N2CCCc3ccccc32)n1	i	i	3e-08	1%	0.8%
O=C1CSC(=Nc2ccccc2Cl)N1	.	.	.	9%	8.2%
Cc1cc(C)c(NC(=O)C(C)(C)C)c(Cl)c1	.	.	.	12%	1.4%
O=C(O)c1cc2sccc2s1	i	i	2.5e-09	.	.
COc1ccccc1-c1nnc(SCc2nc3ccccc3[nH]2)n1C	i	i	1e-09	15%	-2.3%
COc1ccc(CCNC(=O)C2CCN(C(=O)N(C)C)CC2)cc1OC	i	i	1.4e-08	-5%	-1.0%
COc1cc2[nH]c(=O)n(CCCCCC(=O)NCCCN3CCOCC3)c(=O)c2cc1OC	i	i	1.7e-08	-3%	-0.8%
Cc1nnc2sc(-c3csc4c3CCCC4)nn12	i	i	1e-09	.	0.6%
COc1ccc(NC(=O)CSc2nnc(-c3cccs3)n2Cc2ccco2)cc1OC	i	i	2.6e-08	-7%	1.9%
CCCC(=O)Nc1ccccc1NC(C)=O	i	i	5.7e-08	-2%	-1.6%
COc1ccc(CN2CCCCC2c2cccnc2)c(OC)c1C (configuration not stated)	.	.	.	28%	-4.7%
COc1ccc(-n2c(C)nnc2SCC(=O)N2C(C)CCCC2C)cc1 (configuration not stated)	i	i	3e-08	5%	1.4%
COc1ccc(N(CC(=O)Nc2ccc3c(c2)OCCO3)S(=O)(=O)c2cccnc2)cc1	.	.	.	11%	-2.5%
Cn1c2ccccc2c2cc(C(=O)OCC(=O)N3CC(=O)Nc4ccccc43)sc21	i	i	6.9e-09	17%	0.9%
CCOC(=O)N1CCN(C(=O)CCn2nc(-c3ccc(Cl)cc3)ccc2=O)CC1	i	i	4.3e-08	9%	-0.7%
Cc1ccc(Nc2cc(C)nc3nc(C)nn23)c(C)c1	.	.	.	12%	-2.9%
COc1nccc(Nc2ccccc2)c1C#N	i	i	1.7e-08	7%	-0.3%
CCN(CC)CCCN1C(=O)C(=O)/C(=C(/O)c2ccccc2)C1c1ccccn1 (configuration not stated)	i	i	1.9e-08	.	.
Oc1ccc2ccccc2c1CN(Cc1c(O)ccc2ccccc12)C1CCCCC1	i	i	2.2e-08	1%[11.4 µM]	-0.7%[11.5 µM]
COc1ccc(N2CCN(C(=O)CSc3nnnn3-c3ccc4c(c3)OCCO4)CC2)cc1	i	i	8.6e-09	14%	-1.7%
CC1(C)CC(=O)C(CC(=O)NC(=O)NCc2ccccc2)=C(O)C1	i	i	1e-09	6%	-0.8%
COc1ccccc1NC(=O)c1ccccc1-c1nc(-c2ccccc2OC)no1	i	i	1e-09	?	-0.7%
NCCCC(=O)N1c2ccccc2Sc2ccccc21	.	.	.	7%	-0.4%
New compounds follow
SMILES	A488 fluor	Resorufin fluor	A647 autofl	TSHR ag	AID923
OCC1OC(c2ccc3c(c2)OCO3)C=CC1Oc1cc(Cl)cc(Cl)c1 (configuration not stated)	.	.	.	?	-0.6%[11.5 µM]
Cc1[nH]c(-c2ccco2)nc1C(=O)O	i	i	5.4e-09	-1%	-0.7%
COc1ccccc1CNc1cc(-c2ccccc2C)ncn1	i	i	2.3e-09	?	-0.4%
CCOC(=O)CC1=CSC2=NS(=O)(=O)CCN12	i	i	4.5e-09	0%	-0.3%
Cc1ccc2nc(SCC(=O)N3CCCC3)[nH]c2c1	i	i	1e-09	0%[11.4 µM]	-0.5%
O=C(CNC(=O)c1ccco1)OCC(=O)c1ccc2c(c1)CCCC2	i	i	3.1e-08	6%	-0.6%
O=S(=O)(Cc1ccccc1)/C1=C(\N2CCOCC2)CCCCCC1	i	i	1e-09	28%	-2.0%
O=C(Nc1c(F)cc(F)cc1Br)c1ccco1	i	i	1e-09	8%	0.9%
O=C(/C=N\O)NCCCNCc1ccccc1	.	.	.	-3%	-1.0%
CN=c1sc2ccccc2n1CC(O)COCc1ccco1 (configuration not stated)	i	i	1e-09	.	.
COC(=O)c1[nH]c2cccc(OC)c2c1NC(=O)CCN1CCC(C(N)=O)CC1	i	i	1e-09	1%	-1.1%
CCCCn1c(-c2ccccc2)nc2c(=O)n(C)c(=O)[nH]c21	i	i	2.2e-08	-3%	-1.8%
COc1ccccc1NC(=O)C1=C(C)Nc2nc(CCCO)nn2C1c1cccnc1 (configuration not stated)	i	i	7.9e-09	3%	0.3%
COc1ccc(CNC(=O)CN(CC2CCCO2)C(=O)CNS(=O)(=O)c2ccc(F)cc2)cc1 (configuration not stated)	i	i	3.8e-08	4%	-0.1%
Cc1ccc(NC(=O)c2ccc3c(c2)N(CC(=O)N2CCCCC2)C(=O)C(C)(C)O3)cc1	i	i	1.8e-08	6%	-0.1%
O=C(Cn1nnc(-c2ccc(CN3CCOCC3)cc2)n1)Nc1nc(-c2ccccc2)cs1	i	i	3e-08	?	0.5%
ON1C(c2ccccc2)CC2(O)c3nonc3CCC12 (configuration not stated)	.	.	.	-4%	4.6%
Cn1c(/C(C#N)=C(\O)CN2CCN(Cc3ccccc3)CC2)nc2ccccc21	i	i	1e-09	?	-0.3%
C#CCOC(=O)CCC(=O)NCCc1ccccc1	.	.	.	-2%	0.6%
CCOC(=O)CSc1nc(N)c(C#N)c(-c2ccc(OC)cc2)c1C#N	i	i	7.1e-08	.	.
CCc1nc(N[C@@H](Cc2c[nH]c3ccccc23)C(=O)O)c2oc3ccccc3c2n1	i	i	2.2e-08	9%	5.2%
COc1ccccc1OCc1csc(NC(=O)c2ccco2)n1	i	i	1.2e-08	5%	-0.9%
Cc1nn(-c2ccc(F)cc2F)c2c1-c1nc(N3CCCC3)ncc1CC2	i	i	2.7e-08	6%[11.4 µM]	1.0%
COCCn1c(SCC(=O)N2CCCc3ccccc32)nc2cccnc21	i	i	1e-09	3%	-2.6%
CCOC(=O)COn1c(=O)c(-c2ccco2)[n+]([O-])c2ccccc21	i	i	2.1e-08	.	.
CC(NC(=O)Cc1cccs1)c1ccc2c(c1)OCO2 (configuration not stated)	i	i	1e-09	3%	-1.0%
O=C(CCN1C(=O)COc2ccccc21)NCCC1=CCCCC1	i	i	1e-09	4%	-1.0%
N#CCC(=O)NCC1(c2ccccc2)CCCC1	i	i	2.8e-08	2%	-2.8%
COC(=O)c1sccc1NC(=O)C1CC2CCC1C2 (configuration not stated)	i	i	8.2e-09	.	-1.6%
O=C1COc2ccc(-c3csc(NCC4CCCO4)n3)cc2N1 (configuration not stated)	i	i	1.4e-08	10%	0.3%

Complete entries from above. Screens in order: A488 fluor	Resorufin fluor	A647 autofl	TSHR ag	AID923
COC(=O)c1sccc1NC(=O)C1CC2CCC1C2 (configuration not stated) is listed with i	i	8.2e-09	.	-1.6%
CC(NC(=O)Cc1cccs1)c1ccc2c(c1)OCO2 (configuration not stated) is listed with i	i	1e-09	3%	-1.0%
Cc1nn(-c2ccc(F)cc2F)c2c1-c1nc(N3CCCC3)ncc1CC2 is listed with i	i	2.7e-08	6%[11.4 µM]	1.0%

(continued)
SMILES	A488 fluor	Resorufin fluor	A647 autofl	TSHR ag	AID923
O=C(COC(=O)c1ccccc1NC(=O)c1ccco1)NCc1ccc2c(c1)OCO2	i	i	1e-09	?	0.6%
CCC(C(=O)Nc1nccs1)c1ccccc1 (configuration not stated)	.	.	.	8%[11.4 µM]	4.0%
Cc1cc(=O)[nH]c(SCc2cc(=O)n3nc(C)sc3n2)n1	.	.	.	0%	0.9%
COc1ccc(CNc2nc(-c3cccc(NS(C)(=O)=O)c3)nc3ccccc23)c(OC)c1	i	i	1e-09	?	4.7%
Cc1cccc(C(=O)N2CCN(C(=O)c3cccc(C)c3)C(C)C2)c1 (configuration not stated)	.	.	.	1%	0.3%
COc1ccccc1C(=O)N(Cc1ccco1)C1CCS(=O)(=O)C1 (configuration not stated)	i	i	1e-09	-9%	1.5%
